HNF4A DNA FP – change in binding of human HNF4A to DNA, primary screen, biochemical, fluorescence polarization, FITC-DNA; activity change, % at 10 µM; 1 h; 360,000 compounds, 0.3% hits; Hepatocyte nuclear factor 4-alpha (Homo sapiens), P41235; in the data active = activity change above about 30%, passing the limit was not always enough;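 also: controls were the assay level and a saturating level of protein; the project sought stronger binding though the title names inhibitors; some compounds called inactive have numbers as strong as hits; positive values seem to mean higher polarization but the record does not say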
Target sequence (P41235 whole entry, looked up): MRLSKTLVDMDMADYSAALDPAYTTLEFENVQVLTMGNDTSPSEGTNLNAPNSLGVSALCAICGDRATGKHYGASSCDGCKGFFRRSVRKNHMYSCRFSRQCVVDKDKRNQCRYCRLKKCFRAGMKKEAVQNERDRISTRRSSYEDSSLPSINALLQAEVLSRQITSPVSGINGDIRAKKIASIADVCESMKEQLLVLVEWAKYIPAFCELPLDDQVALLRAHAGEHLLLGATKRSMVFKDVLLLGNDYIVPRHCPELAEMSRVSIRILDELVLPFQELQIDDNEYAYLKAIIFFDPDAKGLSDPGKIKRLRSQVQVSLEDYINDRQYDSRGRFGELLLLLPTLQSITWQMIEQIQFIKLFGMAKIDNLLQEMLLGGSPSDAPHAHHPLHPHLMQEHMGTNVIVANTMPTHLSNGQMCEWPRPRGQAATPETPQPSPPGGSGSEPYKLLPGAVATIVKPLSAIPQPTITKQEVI
* marks the source's active call; other numbers are inactive results. Not all compounds are listed; count on the stated rates, not on these rows.

structure	HNF4A DNA FP
O=C(C[C@@H]1CC[C@@H]2[C@H](COC[C@H](O)CN2C(=O)Nc2ccc(F)cc2)O1)NCCc1ccncc1	0.4
Cc1cc(C)nc(NS(=O)(=O)c2ccc(NCN3C(=O)c4ccccc4C3=O)cc2)n1	0.7
CC(NNC(=S)N1CCCCCC1)c1ccc2ccccc2n1 (stereo not given)	2.6
CC1=C(C(=O)N(C)C)CC(CC(=O)NC2CCCCC2)C(=O)N1CCC1=CCCCC1 (stereo not given)	-1.3
COCCN(CCOC)Cc1cc(=O)oc2cc(OC)ccc12	-0.4
CC1(C)C(=O)C=C(N2CCCCC2)c2ccccc21	-0.7
CC(CC(=O)Nc1ccc2c(c1)c(=O)n(C)n2-c1ccc2ccccc2c1)C(F)(F)F (stereo not given)	10
COc1ccc(CC(N)c2csc(Nc3ncccn3)n2)cc1 (stereo not given)	-2.2
CC1=C(C(=O)N2CCCCCC2)CC(CC(=O)NCCCN(C)C)C(=O)N1Cc1ccc(F)cc1 (stereo not given)	12
COc1ccc(CCNC(=O)c2ccc(CSc3ccc(Cl)cc3)o2)cc1OC	-3.8
CCc1nc2c(OCc3c(C)noc3C)cccn2c1N(C=O)Cc1ccc(OC)cc1	-1.9
O=C(NCc1cccnc1)c1csc([C@H]2C[C@H](O)[C@@H](CO)O2)n1	5.6
Nc1ncnc2c1ncn2[C@@H]1O[C@H](C(=O)N2CCN(Cc3ccccn3)CC2)[C@@H](O)[C@H]1O	0.1
CSc1ccc(CN2C(=O)C(C)ON=C2c2ccccc2F)cc1 (stereo not given)	-2.6
CCN(CC)C(=O)c1csc([C@@H]2O[C@H](CO)[C@H](O)[C@H](O)[C@H]2O)n1	0.6
CCOC(=O)[C@]12CCCC=C1N(CCc1ccc(OC)c(OC)c1)C(=O)[C@H](CC(=O)N1CCSCC1)C2	-1.8
Cc1ccc(C(O)c2ncc(-c3cccc(C(F)(F)F)c3)[nH]2)cc1F (stereo not given)	-1.3
CC(=NNC(=O)c1ccccc1N)c1ccccc1O	6.5
Cn1cc(-c2csc(C(O)c3ccc(F)cc3)n2)cn1 (stereo not given)	1.2
Cc1ccc(CNC(=O)Nc2nnc([C@@H]3C[C@H](O)[C@@H](CO)O3)s2)cc1	2.7
CC(O)(c1cccnc1)c1nc(-c2ccc(S(C)(=O)=O)cc2)cs1 (stereo not given)	3.8
O=C(Nc1cccc(F)c1)N1CCc2nc(NCc3cccc(Oc4ccccc4)c3)ncc2C1	3.2
CC1(C(=O)NS(=O)(=O)C2CC2)CCCN(C(=O)/C=C/c2ccccc2)C1 (stereo not given)	1.9
Cc1cc(C)cc(CC(=O)N2CCC2(C)C(=O)NS(=O)(=O)c2cc(C)ccc2F)c1 (stereo not given)	-3.4
O=C(Nc1ccc2c(c1)OCCO2)C1c2ccccc2OCC(=O)N1Cc1ccccc1 (stereo not given)	2.1
CC(=O)Nc1cc(-c2ccccc2F)cn2c(-c3ccccc3)cnc12	2.0
CCOC(=O)[C@]12CCC=C1N(CCC1=CCCCC1)C(=O)[C@H](CC(=O)NCCc1ccccc1OC)C2	-4.5
COC(=O)C[C@@H]1CC[C@H](NC(=O)c2cnccn2)[C@@H](CO)O1	-0.6
CN(Cc1ccccc1)C(=O)c1[nH]c(C(F)(F)F)nc1-c1ccccc1	-5.0
CCOC(=O)[C@]12CCC=C1N(Cc1ccccc1)C(=O)[C@H](CC(=O)NCc1cccc3ccccc13)C2	-0.5

structure	HNF4A DNA FP
O=C1CCCCC(=O)[C@H](O)C[C@H](c2ccccc2)O1	-2.8
Cc1ccc(C(=O)OCC(=O)Nc2c(C)nn(-c3ccccc3)c2C)c(O)c1	2.5
O=C([C@@H]1CCCN1C1=NS(=O)(=O)c2ccccc21)N1CCN(c2ccccc2)CC1	1.7
CC(C)[C@@H]1O[C@H](CCc2ccccc2)CC2=C1C(=O)OC(C)(C)O2	-2.0
O=C1c2ccccc2C(=O)N1CC(O)COc1cccc2ccccc12 (stereo not given)	1.8
COC(=O)C1=C(O)/C(=C/c2ccc(OCC(=O)Nc3ccc(OC)cc3)cc2)N=C1C	3.1
CC1(C(=O)NCc2ccccc2)Cc2c(-c3ccccc3)ccnc2O1 (stereo not given)	-1.9
COC(=O)[C@@]1(C(C)C)N=C(c2cc(OC)c(OC)c(OC)c2)[C@]2(O1)C(=O)Nc1ccccc12	-1.1
COC(=O)[C@@]12C[C@@H](CC(=O)NCc3cccc4ccccc34)C(=O)N(Cc3ccco3)C1=CCC(C)(C)C2	7.4
COc1cccc(NC(=O)C2(C)CCN2Cc2cccc(OC)c2F)c1 (stereo not given)	1.7
COc1cc(Nc2ccn3nc(-c4ccc(F)cc4)cc3n2)cc(OC)c1OC	0.4
CCOC(=O)[C@]12CCC=C1N(Cc1ccco1)C(=O)[C@H](CC(=O)N1CCN(C(=O)c3ccco3)CC1)C2	1.6
O=C(Nc1ccc2ccccc2c1)OC1CCS(=O)(=O)C1 (stereo not given)	4.9
CC(C)CNc1ncnc2c1ncn2[C@H]1CN(Cc2ccc(F)cc2)C[C@@H](CO)O1	2.2
COC1=CC(=O)OC(c2cccc(OC)c2)C1 (stereo not given)	1.1
OC[C@@H]1CN(Cc2ccc(F)cc2)C[C@H](n2cnc3c(N4CCCC4)ncnc32)O1	0.1
CC1(C(=O)NS(=O)(=O)c2cccc(C#N)c2)CCN1C(=O)CCc1ccccc1 (stereo not given)	-7.7
CCNC(=O)C1(C)CCCN(C(=O)c2csc3ccccc23)C1 (stereo not given)	0.1
COc1c(C)cc(C(O)c2ncc(-c3ccccc3)[nH]2)cc1C (stereo not given)	-0.2
O=C(COc1ccc(CNC[C@H]2O[C@@H](n3ccc(=O)[nH]c3=O)[C@H](O)[C@@H]2O)cc1)Nc1ccccn1	4.3
CCCc1nc2c3ccccc3ccn2c1Cc1ccccc1	4.2
CCCNC(=O)c1cc(C2CCCN(S(=O)(=O)c3cccs3)C2)on1 (stereo not given)	12
CN1CCN(C(=O)CCn2c(=S)[nH]c3ccccc3c2=O)CC1	2.3
Cc1cccc(C)c1NC(=O)CN1CCN(c2ccc(F)cc2)CC1	-1.2
COC(=O)[C@@]1(Cc2ccc(F)cc2)[C@H]2c3cc(C(=O)N(C)C)n(Cc4ccsc4Br)c3C[C@H]2CN1C(=O)c1ccccc1	1.8
O=C1c2c(-c3ccc(Br)cc3)noc2CCN1Cc1cn(-c2ccc(Cl)cc2)nn1	-5.0
O=C(NCc1ccncc1)[C@@H]1CCCN1C(=O)[C@H]1CCCN1C(=O)c1ccccc1	8.1
CC(=O)Nc1cc(-c2ccccc2N(C)C)cn2c(-c3ccccc3)cnc12	-17
CCOC(=O)[C@]12CCCC=C1N(Cc1ccccc1)C(=O)[C@H](CC(=O)NCc1ccc(OC)c(OC)c1)C2	1.6
COc1ccc(OCc2cc(C(=O)NC(C)c3nc(C)cs3)no2)c(Cl)c1 (stereo not given)	2.7

Reformatted with each value named: 3 of the compounds above.
O=C(NCc1ccncc1)[C@@H]1CCCN1C(=O)[C@H]1CCCN1C(=O)c1ccccc1
  HNF4A DNA FP = 8.1

CC(=O)Nc1cc(-c2ccccc2N(C)C)cn2c(-c3ccccc3)cnc12
  HNF4A DNA FP = -17

CCOC(=O)[C@]12CCCC=C1N(Cc1ccccc1)C(=O)[C@H](CC(=O)NCc1ccc(OC)c(OC)c1)C2
  HNF4A DNA FP = 1.6

Fetched by compound from above, four records:
structure	HNF4A DNA FP
O=C(Nc1cccc(F)c1)N1CCc2nc(NCc3cccc(Oc4ccccc4)c3)ncc2C1	3.2
O=C1c2ccccc2C(=O)N1CC(O)COc1cccc2ccccc12 (stereo not given)	1.8
O=C(NCc1cccnc1)c1csc([C@H]2C[C@H](O)[C@@H](CO)O2)n1	5.6
CC(=O)Nc1cc(-c2ccccc2N(C)C)cn2c(-c3ccccc3)cnc12	-17

Continued:
structure	HNF4A DNA FP
Cc1ccc2nc(CN(C)C(=O)[C@H]3O[C@@H](n4ccc(=O)[nH]c4=O)[C@H](O)[C@@H]3O)[nH]c2c1	1.0
CC(C)CNC(=O)C1(C)CCCN1C(=O)c1csnn1 (stereo not given)	1.6
COc1ccc(NC(=O)C2c3ccccc3OCC(=O)N2Cc2ccco2)cc1 (stereo not given)	1.5
NC(c1csc(Nc2cc(Oc3ccccc3)ncn2)n1)C1CCCCC1 (stereo not given)	2.1
COc1ccccc1C(=O)N1CCN(c2nc3cc(C)cc(C)c3cc2C#N)CC1	0.9
COc1ccc(C(O)c2ncc(-c3cccc(C(F)(F)F)c3)[nH]2)cc1F (stereo not given)	2.9
CCCNC(=O)C1(C)CCN(C(=O)COc2ccc(C(C)(C)C)cc2)C1 (stereo not given)	1.6
COc1ccc(C(C)=O)cc1CN1C(=O)C(C)ON=C1c1ccccn1 (stereo not given)	2.5
C[C@H]1COc2cc(N3CCC[C@@H]3CO)ccc2S(=O)(=O)N1	-6.5
O=C(Nc1ccc(N2CCOCC2)cc1)c1csc(COCCO)n1	1.8
CCCNC(=O)C1(C)CCCN(C/C=C/c2ccccc2)C1 (stereo not given)	-0.3
N#C/C(=C\c1cccn1S(=O)(=O)c1cccc(C#N)c1)S(=O)(=O)c1ccc(F)cc1	1.6
CCCCNC(=O)c1nc(-c2ccncc2)oc1-c1ccc(OC(F)(F)F)cc1	2.3
CCOC(=O)C1(C)CCN1C(=O)c1csnn1 (stereo not given)	3.3
CCOc1ccc(Cl)cc1-c1cc(C(=O)NC(C)C)[nH]n1	-0.9
O=C1CCCCCCC(=O)[C@H](O)C[C@H](c2ccccc2)O1	2.7
CCCc1nc2c(Cl)cc(C(F)(F)F)cn2c1Cc1ccc(OC)cc1C	3.6
C[C@@H]1CN([C@H](C)CO)C(=O)c2cc(NC(=O)Nc3ccc(F)cc3)ccc2O[C@@H](C)CCCCO[C@H]1CN(C)S(=O)(=O)c1ccc(Cl)cc1	-0.9
Cc1cccnc1C(NC(=O)C1CCN(Cc2ccc(Cl)cc2)CC1)c1ccccc1 (stereo not given)	2.3
O=C(C[C@@H]1CC[C@@H]2[C@H](COC[C@H](O)CN2CCC(F)(F)F)O1)NCc1ccc2c(c1)OCO2	2.1
O=C(NC(c1ccccc1)c1ccsc1)C1CCN(Cc2ccccc2)CC1 (stereo not given)	-0.9
CCOc1ccc2nc(S(=O)(=O)NC(=O)C3(C)CCN3C(=O)CCc3cccs3)sc2c1 (stereo not given)	-0.2
CNC(=O)OCc1nc(SC2CCCCO2)n(C)c1COC(=O)NC (stereo not given)	-1.2
Cc1cc2nc(-c3ccco3)c(Cc3ccccc3C(F)(F)F)n2c(C)c1Br	8.2
Cn1ccc2c(-c3ccc(F)cc3)cc3c(c21)C1CCC3C1 (stereo not given)	1.3
CC1(C)CC(Cc2ccccc2C(F)(F)F)N(C(=O)OC(C)(C)C)C1 (stereo not given)	5.2
Cc1ccc(NC(=O)c2cc(-c3cc(F)ccc3OCC3CCCO3)n[nH]2)cc1NS(C)(=O)=O (stereo not given)	-2.2
Cn1cnc(CCNC(=O)C[C@H]2CC[C@@H]3[C@H](COC[C@H](O)CN3C(=O)C3CCCC3)O2)c1	18
COc1cc(CNC(=O)Nc2nc(C(N)CCc3ccccc3)cs2)cc(OC)c1OC (stereo not given)	2.2
FC(F)C(F)(F)Oc1cccc(Nc2nccn3c(-c4ccc5ccccc5c4)cnc23)c1	12

smiles	HNF4A DNA FP
CC(C)CC#Cc1ccc2c(c1)O[C@H](CN(C)C(=O)Nc1ccccc1)[C@@H](C)CN([C@H](C)CO)S2(=O)=O	-1.1
CCOC(=O)C1(C)CCN1C(=O)c1cc(C)oc1C (stereo not given)	-0.3
COc1cccc(-c2cnc3c(NC(C)=O)cc(-c4cccc(NS(C)(=O)=O)c4)cn23)c1	2.8
CO[C@@H]1CN(C)C(=O)c2cc(NC(=O)Nc3cc(F)ccc3F)ccc2OC[C@H](C)NC[C@@H]1C	5.8
CCOC(=O)[C@]12CCC=C1N(Cc1ccc(Cl)cc1Cl)C(=O)[C@H](CC(=O)N1CCSCC1)C2	-0.3
COc1ccccc1Cc1c(-c2ccc(Cl)cc2)nc2c3ccccc3ccn12	7.9
O=C(NC1CCCCC1)C(c1ccnc2ccccc12)n1c(=O)c(-c2cc3ccccc3[nH]2)nc2ccccc21 (stereo not given)	4.0
C=CCOC(=O)Nc1nc(CCNC(=O)OC(C)(C)C)c(C(=O)OC)s1	-0.2

smiles	HNF4A DNA FP
O=c1c2cc(C(F)(F)F)ccc2sn1-c1ccccc1	-1.4
N#Cc1c(Cl)cccc1N1CCSCC1	2.2
COC(=O)C1CCN(C2CN(C3CCCCC3)S(=O)(=O)C2)CC1 (stereo not given)	2.4
CCCCNC(=O)C1(C)CCCCN1Cc1ccc(OCc2ccccc2)cc1 (stereo not given)	0.4
Fc1ccc(-c2nc3ccc(Cl)cn3c2Cc2ccsc2)cc1	-6.2
CC(O)C(NC(=O)OCc1ccccc1)C(=O)NCC(=O)NCC(=O)OCc1ccccc1 (stereo not given)	0.4
CC(=O)c1cccc(-c2cnc3c(NC=O)cc(-c4ccc(C(=O)N5CCOCC5)cc4)cn23)c1	-4.0
CCOc1ccc2oc(C(=O)Nc3ccc(C)cn3)c(C)c2c1	2.2

smiles	HNF4A DNA FP
CC1(C(=O)NCc2ccccc2)CSCC(=O)N1CCCN1CCOCC1 (stereo not given)	1.9
CSc1ccc(NC(=O)C2(C)CCN2C(=O)c2cc(C)n(C)n2)cc1 (stereo not given)	0.9
Cc1ccc(-c2nc3ccc(C)cn3c2Cc2ccsc2)cc1	-1.9
CC(C)C[C@H]1CNC(=S)N1C[C@H]1CCCN1C[C@H](Cc1ccc(O)cc1)N1C[C@H](Cc2ccccc2)N(CCc2ccccc2)C1=S	-2.0
O=C(NCc1ccncc1)[C@@H]1CCCN1C(=O)[C@H]1CCCN1	0.3
O=C(C[n+]1cccc(C(=O)Nc2ccccc2)c1)c1ccccc1	2.6

Compound activity as filed in PubChem.
